# TDP1 block: inhibitors of human tyrosyl-DNA phosphodiesterase TDP1 | Q9NUW8 | 350,000 tested, 0.28% active | recombinant TDP1, AlphaScreen DNA substrate cleavage | Potency, µM (series often up to 130 µM), inactives show at the top dose activity change, negative = inhibition, actives largely listed as inhibitors; active means well fitted inhibition curve with a large enough effect; further: nearly all actives have a fitted effect of over 40% in size
# Target sequence (Q9NUW8 whole entry, looked up): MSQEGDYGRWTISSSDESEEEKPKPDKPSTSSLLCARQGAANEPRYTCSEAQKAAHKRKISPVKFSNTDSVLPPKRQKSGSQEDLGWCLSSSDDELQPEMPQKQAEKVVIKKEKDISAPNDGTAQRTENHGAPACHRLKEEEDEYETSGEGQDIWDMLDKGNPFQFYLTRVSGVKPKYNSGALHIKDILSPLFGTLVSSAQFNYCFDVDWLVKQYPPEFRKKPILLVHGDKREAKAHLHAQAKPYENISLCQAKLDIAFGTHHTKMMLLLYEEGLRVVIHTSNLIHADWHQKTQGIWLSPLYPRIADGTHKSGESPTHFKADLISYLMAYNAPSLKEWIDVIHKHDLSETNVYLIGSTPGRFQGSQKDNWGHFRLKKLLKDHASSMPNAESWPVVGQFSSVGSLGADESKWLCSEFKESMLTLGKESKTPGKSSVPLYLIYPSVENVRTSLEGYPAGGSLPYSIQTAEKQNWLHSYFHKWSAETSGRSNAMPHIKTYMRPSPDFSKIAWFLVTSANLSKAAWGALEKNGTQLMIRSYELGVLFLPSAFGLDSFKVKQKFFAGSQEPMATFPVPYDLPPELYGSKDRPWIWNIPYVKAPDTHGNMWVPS
#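 Tdp1 1 nM final; 15 min RT w/ cpd; substrate 15 nM, 5 min; beads 10 ug/ml, 10 min; AlphaScreen read. Neg ctrl: no enzyme.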
# Starred values were filed as active, the others as inactive; & = joins results of further samples; [ ] = dose if it differs, or a comment. On the % scale 0 is the no-effect control and ±100 the full control effect; potency means the concentration at half of the fitted maximal effect. Only part of the results is shown; most or all hits stand in other tables.
1: Nc1ccc(Br)cc1
  TDP1 block: -8%

2: C[C@]12CC[C@H](O)C[C@@H]1CC[C@H]1[C@H]2CC[C@]2(C)C(=O)CC[C@@H]12
  TDP1 block: 5%[21 µM]

3: CO[C@H]1[C@@H](O)[C@@H](C)O[C@H](O[C@H]2[C@H](Oc3cccc4c(O)c5c(=O)oc6ccc(C)c7c(=O)oc(c34)c5c67)O[C@H](C)[C@H](O)[C@@H]2O)[C@@H]1O
  TDP1 block: 8%

4: COC(=O)[C@@H](c1ccccc1)C1CCCCN1 (stereo not given in full)
  TDP1 block: 0%

5: Cc1ccn2nc(S(=O)(=O)Nc3c(F)cccc3F)nc2n1
  TDP1 block: -1%

6: Oc1cc(Cl)c(Cl)c(Cl)c1
  TDP1 block: 4%

7: S=c1[nH]c2ccccc2[nH]1
  TDP1 block: 2%&17%

8: NCC(O)c1ccc(O)cc1 (stereo not given)
  TDP1 block: -8%

9: Oc1cc(Cl)c(Cl)c(Cl)c1Cl
  TDP1 block: 5%

10: CN1CCN(c2ccc3ccccc3n2)CC1
  TDP1 block: -9%[56.1 µM]

11: Cc1ccc2c(c1N)C(=O)c1ccccc1C2=O
  TDP1 block: 0%&10%

12: CN1CC[C@]23c4c5ccc(O)c4OC2C(O)C=CC3[C@H]1C5 (stereo not given in full)
  TDP1 block: 0%

13: O=C1C2(Cl)C3(Cl)C4(Cl)C(Cl)(Cl)C5(Cl)C3(Cl)C1(Cl)C5(Cl)C24Cl (stereo not given)
  TDP1 block: -1%&4%&13%

14: CCC/C=N/O
  TDP1 block: 2%&7%

15: CC(Cc1ccc(O)cc1)NCC(O)c1cc(O)cc(O)c1 (stereo not given)
  TDP1 block: 13%[56.1 µM]

# Shown tab-delimited: entries from further up.
nr	SMILES	TDP1 block
3	CO[C@H]1[C@@H](O)[C@@H](C)O[C@H](O[C@H]2[C@H](Oc3cccc4c(O)c5c(=O)oc6ccc(C)c7c(=O)oc(c34)c5c67)O[C@H](C)[C@H](O)[C@@H]2O)[C@@H]1O	8%
4	COC(=O)[C@@H](c1ccccc1)C1CCCCN1 (stereo not given in full)	0%
5	Cc1ccn2nc(S(=O)(=O)Nc3c(F)cccc3F)nc2n1	-1%
6	Oc1cc(Cl)c(Cl)c(Cl)c1	4%
7	S=c1[nH]c2ccccc2[nH]1	2%&17%
8	NCC(O)c1ccc(O)cc1 (stereo not given)	-8%
